PINK1 modulator: A Quantitative High throughput Screen to Identify Chemical Modulators of PINK1 Expression | Potency, µM (doses to about 76.6 µM), inactives show top-dose activation (PINK1 increase), actives largely listed as activators | PINK1 immunofluorescence, high-content cytometry, 24 h | 410,000 tested, 0.2% active; active = well fitted activation curve with a large enough effect; inconclusive = small, poorly fitted or top-dose-only effect; inactive = flat fitted curve, though single readings scatter; cell line not stated here;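 further: potency means the concentration at half of the fitted maximal effect; % of control where 0% means no effect; nearly all actives have a fitted effect of over 65% in size; a mitochondrial uncoupler was the plate control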
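Measures PINK1 amount and localization on or inside mitochondria by immunofluorescence. Stable cells get compounds at 5 concentrations for 24 hours before fixation and staining; CCCP controls included.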
TRPV1 potentiator: HTS Assay for Compounds that Act as Potentiators of the Vanilloid Receptor 1 | AID 540277, 2011 | potentiation, % at 8.33 µM | TRPV1-expressing cells, Fluo-8 calcium influx, capsaicin EC20 potentiation; host cell line not named in the record; control for the full effect not named in the record | 320,000 tested, 0.02% active | Transient receptor potential cation channel subfamily V member 1 (Homo sapiens), Q8NER1; active means potentiation above 80%; inconclusive means 30% to 80%; inactive means below 30%; further: 0% is about no effect
Target sequence (Q8NER1 whole entry, looked up): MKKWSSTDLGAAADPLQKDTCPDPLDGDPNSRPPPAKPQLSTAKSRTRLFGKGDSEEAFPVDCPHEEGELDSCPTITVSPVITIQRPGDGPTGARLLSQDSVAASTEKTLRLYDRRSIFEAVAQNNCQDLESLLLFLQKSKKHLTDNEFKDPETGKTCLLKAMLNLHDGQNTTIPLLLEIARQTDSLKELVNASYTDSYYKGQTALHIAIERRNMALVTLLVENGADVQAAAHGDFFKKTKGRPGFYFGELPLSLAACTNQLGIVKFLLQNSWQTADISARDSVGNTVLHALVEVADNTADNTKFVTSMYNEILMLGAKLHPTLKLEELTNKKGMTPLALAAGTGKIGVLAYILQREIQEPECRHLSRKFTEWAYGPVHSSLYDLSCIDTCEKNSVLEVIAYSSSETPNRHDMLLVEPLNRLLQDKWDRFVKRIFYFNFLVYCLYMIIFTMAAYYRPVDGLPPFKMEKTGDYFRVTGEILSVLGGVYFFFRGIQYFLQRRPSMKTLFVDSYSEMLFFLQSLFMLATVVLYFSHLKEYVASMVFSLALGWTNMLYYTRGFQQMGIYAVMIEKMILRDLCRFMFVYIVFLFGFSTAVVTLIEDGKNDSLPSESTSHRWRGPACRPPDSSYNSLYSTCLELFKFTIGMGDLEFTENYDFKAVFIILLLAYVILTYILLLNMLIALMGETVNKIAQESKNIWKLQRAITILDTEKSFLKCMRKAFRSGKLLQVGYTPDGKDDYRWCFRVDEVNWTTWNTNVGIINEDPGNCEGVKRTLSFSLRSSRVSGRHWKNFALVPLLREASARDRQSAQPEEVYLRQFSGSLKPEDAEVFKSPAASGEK
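Cells expressing TRPV1 were dye-loaded with Fluo-8 and read kinetically: 10 s baseline, 3 min after compound (agonist portion), then 2 min after EC20 capsaicin (allosteric enhancer portion). Calcium-bound dye fluorescence at 480/520 nm.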
TRPML1 blocker: qHTS for Inhibitors of the Human Mucolipin Transient Receptor Potential 1 (TRPML1); TRPML1-inducible cells, Ca2+ dye fluorescence, FDSS; active compounds read low; inhibition of EC80 agonist-evoked calcium signal; AID 624415, 2012; activity change, negative = inhibition, % (test concentration not listed); 390,000 tested, 0.02% active; in the data active means activity change below about -50%; inconclusive means about -30% to -50%; inactive means above about -30%;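 further: stimulus is agonist 54-4 at its EC80 concentration; on the % scale 0 is the no-effect control and ±100 the full control effect; compound concentration not given in the record; the text of the record puts the active cut at -80%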
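Calcium fluorescence in TRPML1-DL cells induced overnight with Tet: a 110 s read after compound pin addition, then a 110 s antagonist read after challenge with 54-4 at 4 uM final (EC80).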
TRPML1 agonist: qHTS for Agonists of the Human Mucolipin Transient Receptor Potential 1 (TRPML1). TRPML1-expressing cells, Ca2+ dye fluorescence, FDSS; host cell line not named in the record; reference of the full effect not given here. 410,000 tested, 0.12% active. Mucolipin-1 (Homo sapiens), Q9GZU1. AID 624414, 2012. activation, % (no concentration beside the values); in the data active = activation above about 50%; inconclusive = about 30% to 50%; inactive = below about 30%; further: 0% is about no effect; the text of the record puts the active cut at 80%
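Cells: TRPML1-DL, 1X Tet inducer, ~16 h at 37 degrees C/5% CO2. Dye: ABD Ca8 no-wash + quencher, 45-90 min RT. Read: 10 s baseline, compound add, 110 s agonist phase; 54-4 EC80 (4uM final), 110 s antagonist phase.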
Menin-MLL FL inh: qHTS Assay for Inhibitors Targeting the Menin-MLL Interaction in MLL Related Leukemias: Competition With Fluorescein Labeled MLL-derived Peptide; 290,000 tested, under 10 active; Fluorescence polarization, fluorescein-MLL peptide displacement from menin; FP activity change, % at 61.4 µM; inconclusive = falling polarisation curve, or a change in total fluorescence; inactive = total fluorescence flat and polarisation flat or rising; no compound was filed as active; the % refers to the polarisation; negative = inhibition;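 further: % of control where 0% means no effect; inhibitors lower the polarisation; unlabelled MLL peptide was the positive control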
Sfp PPTase inh: qHTS Assay for Inhibitors of Bacillus subtilis Sfp phosphopantetheinyl transferase (PPTase) | Potency, µM, without a hit: max response, negative = inhibition, most hits filed as inhibitors | 310,000 tested, 3.5% active | 4'-phosphopantetheinyl transferase ffp (Bacillus subtilis), Q9F4F7 | Biochemical Sfp PPTase activity, qHTS; active means well fitted inhibition curve with a large enough effect; inconclusive means small, poorly fitted or top-dose-only effect, or another doubt; inactive means no such curve, though single readings can be large or run the other way;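 further: the enzyme is Sfp with the accession as filed and its product quenches rhodamine fluorescence; potency means the concentration at half of the fitted maximal effect; 0% = enzyme reaction without inhibitor and -100% = no enzyme wells; top concentration of the series not given in the record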
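With Hepes-Na pH 7.6 buffer containing 10 mM MgCl2, Sfp (15 nM) modified BHQ-2-YbbR (12.5 uM) using rhodamine-CoA (5 uM). Two reads 30 minutes apart at 525/598 nm yielded each well's rate.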
ClpP mod: qHTS Assay for Activators of ClpP | Potency, µM (series often up to 57.5 µM), for inactives: top-dose activity change, negative = active | ATP-dependent Clp protease proteolytic subunit (Bacillus subtilis (strain 168)), P80244 | purified B. subtilis ClpP, FRET peptide cleavage, 20 min | 340,000 tested, 1.9% active | AID 651965, 2013; active = well fitted falling curve with a large enough effect; inconclusive = small, poorly fitted or top-dose-only effect; inactive = no such curve, though single readings can be large or run the other way; further: potency means the concentration at half of the fitted maximal effect; the source files actives as falling curves though it sought activators and does not explain the sign; nearly all actives have a fitted effect of over 65% in size; many hits overshoot -100%
Target sequence (P80244 whole entry, looked up): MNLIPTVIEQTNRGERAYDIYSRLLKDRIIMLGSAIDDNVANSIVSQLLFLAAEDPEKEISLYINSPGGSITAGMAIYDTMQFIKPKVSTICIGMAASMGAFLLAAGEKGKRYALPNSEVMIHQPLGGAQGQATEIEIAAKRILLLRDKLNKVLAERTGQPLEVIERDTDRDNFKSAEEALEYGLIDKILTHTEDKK
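Buffer: 100 mM Tris/HCl pH8, 100 mM KCl, 0.05% low protease BSA, 2.5% glycerol, 0.01% Tween-20. ClpP 10 microg/mL final; 20 min RT; delta FRET normalized to ADEP and DMSO controls.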
The depositor's hits bear a star; ? = inconclusive; nt = no result given; [ ] = another dose, or the depositor's remark.

mol,PINK1 modulator,TRPV1 potentiator,TRPML1 blocker,TRPML1 agonist,Menin-MLL FL inh,Sfp PPTase inh,ClpP mod
CN(C)Cc1cc(C(C)(C)c2ccccc2)ccc1O,10%,nt,1,0.3,nt,nt,nt
CCc1ccc(NC(=O)[C@H](Cc2ccccc2)N2Cc3ccccc3C2=O)cc1,5.7%,nt,19,1.0,nt,nt,1.3%
Cc1oc(-c2ccccc2F)nc1CSCC(=O)NC1CC1,-0.8%,18,20,-0.8,3.8,23%,-7.0%
CCc1nc(-c2ccccc2)cc(=O)[nH]1,nt,4,2,-0.6,-3.0,9%,1.3%
COC(=O)c1ccccc1NC(=O)CSc1nc2nc(C)cc(C)n2n1,-0.9%,nt,-1,0.8,nt,nt,-1.6%
COc1ccc(CCn2c(C)cc3c(c2=O)C(c2ccncc2)C(C#N)=C(N)O3)cc1OC (configuration not stated),0.4%,2,-16,-0.6,-6.9,19%,-1.0%
CC(C)n1c(O)c(N=Nc2ccc(Cl)nn2)c2ccccc21,2.6%,4,5,-0.7,-2.1,0%,-0.7%
O=c1c2ccccc2sn1-c1ccc(S(=O)(=O)N2CCOCC2)cc1,0.1%,nt,nt,-0.4,nt,nt,-0.2%
Cc1ccc(N2NC3(CCN(C(N)=O)CC3)NC2=O)cc1,-1.3%,19,14,0.1,25,-12%,nt
Cc1ccc(S(=O)(=O)N2CCCCC2CCNC(=O)C(=O)NCc2ccccc2)cc1 (configuration not stated),2.6%,-1,-5,1.8,nt,nt,-7.2%
CC(=O)c1sc(NC(=O)c2ccc(C)cc2)nc1C,-0.3%,-23,5,-1.0,2.2,4%,3.9%
Clc1ccc(Cn2nnc3ccccc32)cc1,3.7%,5,-10,0.1,1.4,13%,-0.1%
COc1ccc(C(=O)c2cnc3ccccc3c2-c2ccccc2)cc1,0.5%,-25,54,2.5,1.5,-13%,-0.6%
CC(C)CCNC(=O)C(C)N(Cc1ccc(F)cc1)C(=O)c1ccc(CN2CCOCC2)o1 (configuration not stated),0.2%,-1,-3,0.7,1.2,12%,nt
C=CCNC(=S)/N=c1/ccccn1CC,0.4%,12,0,0.2,-1.8,-5%,0.4%
CN(CC(=O)Nc1ccc(Cl)c(C(F)(F)F)c1)C(=O)Cc1c[nH]c2ccccc12,-1.2%,-2,-11,1.0,nt,nt,-1.7%
CCOc1ccc(Br)cc1S(=O)(=O)Nc1ccc(NC(=O)c2ccccc2F)cc1,0.5%,6,-8,-0.3,8.2,9%,-0.7%
CCCOc1ccc(-c2c(C(=O)N/N=C/c3cccnc3)nnn2-c2nonc2N)cc1,0.3%,4,12,0.5,nt,5%,-3.2%
Cc1ccccc1-n1c(SC2CCOC2=O)nnc1-c1ccncc1 (configuration not stated),-0.2%,-14,9,-0.9,-3.8,15%,-12%
Cc1cc(C)c(S(=O)(=O)Nc2ccc(C(=O)O)cc2)cc1S(=O)(=O)Nc1ccc(C(=O)O)cc1,0.5%,nt,-9,-0.4,nt,nt,0.3%
COc1ccccc1-c1cc(C(=O)N2CCN(c3ccc(F)cc3)CC2)no1,15%[38.3 µM],-2,21,1.1,2.3,12%,13%
COc1ccc([C@H]2C[C@@H](O)[C@H](n3cc(-c4ccc(F)cc4)nn3)CN2C(=O)C2CCCCC2)cc1,1.2%,nt,-3,-0.4,nt,nt,-1.6%
O=C(c1ccco1)N1CCN(S(=O)(=O)c2ccc3[nH]c(=O)oc3c2)CC1,1.3%,-10,-3,-0.1,-7.5,14%,-1.6%
COc1ccc(C(C(=O)NC2CCCCC2)N(C(=O)c2snc(C(N)=O)c2N)c2ccccc2OC)cc1 (configuration not stated),-0.3%,-7,0,1.1,-5.2,1%,nt
c1ccc(SCc2cn(C[C@H]3CC[C@@H]([C@@H]4CC[C@H](Cn5cc(CSc6ccccc6)nn5)O4)O3)nn2)cc1,1.0%,18,-8,-0.3,4.7,10%,-0.9%
Cn1c(SCC(=O)Nc2ccccc2)nnc1-c1ccc2nonc2c1,1.4%,12,-1,-1.2,2.9,7%,nt
COC(=O)c1nc2n(n1)C(c1cccc(Cl)c1)C(C(=O)Nc1ccccc1OC)=C(C)N2 (configuration not stated),7.5%,nt,6,1.4,nt,nt,3.3%
Cc1ccc(CC(=O)NCCCn2ccnc2)cc1,1.3%,-8,-11,-1.2,-4.4,10%,nt
CCOC(=O)C(Cc1ccccc1)C(=O)Nc1cccc2ccccc12 (configuration not stated),2.9%,5,24,0.7,0.4,-11%,-3.9%
O=C1c2ccccc2S(=O)(=O)N1Cc1nc2ccccc2s1,-1.3%,-6,-2,1.4,1.8,-2%,-1.8%
Cc1nn(C)c2c1c(C(F)(F)F)cc(=O)n2C(C)C(=O)NCCc1ccc(Cl)cc1 (configuration not stated),4.7%,nt,12,0.5,nt,nt,?
CCCN(C(=O)c1cc(-c2ccco2)nc2ccccc12)c1c(N)n(Cc2ccccc2)c(=O)[nH]c1=O,2.1%,-2,-5,-0.3,nt,nt,?
O=C(N/N=C/c1ccccc1O)c1ccc2c(c1)OCO2,2.5%,-2,-16,0.0,2.4,12%,nt
CCc1ccc(CNC(=O)CSCc2cnn(-c3ccccc3)c2-n2cccc2)cc1,-0.5%,nt,-12,2.4,nt,nt,-0.3%
CCCC(=O)OCC(=O)Nc1cc([N+](=O)[O-])ccc1OC,2.1%,5,9,-0.7,-3.8,10%,nt
Cc1cc(C)c2nc(N3CCC(C(=O)N4CCN(C(=O)c5ccco5)CC4)CC3)sc2c1,-2.5%,15,14,0.8,-1.5,-14%,-2.9%
CO[C@H](C(=O)N(C)C[C@@H]1OCc2ccccc2-c2c(n(C)c3ccccc23)C(=O)N([C@H](C)CO)C[C@@H]1C)c1ccccc1,-0.4%,nt,-27,-0.3,nt,nt,1.2%
COc1ccc(CC(=O)OCC(=O)Nc2ncc(Cl)cc2Cl)cc1OC,-2.2%[38.3 µM],-18,-18,2.4,-1.5,16%,-1.7%
CCOc1ccc(NS(=O)(=O)c2ccc3c4c(cccc24)C(=O)N3)cc1,1.7%,nt,33,-1.0,nt,nt,-0.5%
CC(C)CSc1ncc(-c2cccc(C(F)(F)F)c2)cn1,-2.3%,-11,18,-0.6,6.5,-11%,-1.0%
COc1ccc(C(=O)N2CCN(c3cccc(Cl)c3)CC2)c(OC)c1,4.1%,2,-7,2.4,-0.5,-8%,0.6%
C/C(=N\NC(=O)c1cc(-c2cccc([N+](=O)[O-])c2)n[nH]1)c1ccc(F)cc1,12%,7,4,-0.5,0.3,21%,0.2%
COc1ccc(Cc2nc(C(=O)NCc3ccccc3OC)cs2)cc1,2.4%,4,14,1.8,-0.9,-1%,-0.6%
O=C(N/N=C/c1c[nH]c2ccc(Br)cc12)c1ccn(Cc2ccc(Cl)cc2Cl)n1,1.4%,-45,9,-0.4,-0.5,21%,?
Cc1cccc(/C(N)=N/OC(=O)Cc2cccc3ccccc23)c1,6.7%,-8,-12,4.6,-4.5,18%,nt
COc1ccc(CNC(=O)CN2C(=O)COc3ccc(S(=O)(=O)N4CCCC4)cc32)cc1,1.1%,7,-12,-0.4,nt,16%,0.1%
CCN(c1ccc(C)cc1C)S(=O)(=O)c1nnc(NC(=O)CC(C)C)s1,2.6%,nt,-11,1.4,nt,nt,-4.4%
CCc1noc(-c2ccc(NCc3ccccc3)c([N+](=O)[O-])c2)n1,3.3%,nt,5,-0.9,nt,nt,-0.4%
COc1ccc(CN2CCC(N(CCc3ccccc3)Cc3ccccc3)CC2)c(OC)c1,-2.0%,-7,6,-0.9,-8.5,40µM*,nt
CC(=O)Nc1ccc(NC(=O)Nc2sc3nc4n(c(=O)c3c2C)CCC(C)CC4)cc1 (configuration not stated),0.6%,nt,-10,-1.2,nt,nt,4.2%
O=C(O)C1CSC(CCc2ccccc2)N1 (configuration not stated),-1.2%,-4,25,0.3,0.4,79µM*,-0.7%
CCC(C(=O)Nc1ccc(N2CCOCC2)c(S(=O)(=O)Nc2ccccc2OC)c1)c1ccccc1 (configuration not stated),1.7%,nt,39,1.1,nt,nt,2.2%
Cc1cc(C)c(C(=O)CSc2n[nH]c(=O)n2C2CC2)cc1C,-1.7%,-16,4,-0.5,0.9,6%,-1.6%
OC(c1ccc(F)cc1)(C1CCCCC1)C(CN1CCOCC1)c1ccccc1 (configuration not stated),10%,-6,18,1.3,1.9,3%,-0.5%
Clc1ccc(-c2nnc(-c3ccco3)nc2N2CCCCC2)cc1,2.1%,6,21,1.0,12,?,1.6%
O=C(NCCc1ccc(C(F)(F)F)cc1)C1CCC(=O)N(C2CC2)C1 (configuration not stated),2.0%,2,-7,0.1,-0.6,13%,1.3%
Cc1cc(Nc2ccccc2)nn1C(=O)c1ccc(Br)cc1,7.0%,6,8,-0.5,3.0,10%,19%
O=C(N/N=C/c1cccc(Oc2ccccc2)c1)c1cccc(Br)c1,?,14,1,1.8,2.1,16%,-3.1%
COCCn1nnnc1C(c1ccc(OC)c(OC)c1)N1CCN(c2nc3ccccc3s2)CC1 (configuration not stated),5.8%,-9,-16,-0.1,0.4,-2%,-4.9%
O=S(=O)(c1ccccc1)N1CCNc2ccccc21,2.2%,nt,2,-1.2,nt,nt,nt
Cc1nn(-c2ccc(F)cc2)c2nc(N)c(C#N)c(-c3cccs3)c12,12%,6,-3,1.8,6.9,3%,-6.7%

Assay outcomes from PubChem BioAssay.
